Assay outcomes (PubChem BioAssay)
miR-21 FLuc: raises the signal of a miR-21 reporter | HeLa miR-21 FLuc reporter, luciferase, 48 h | AID 2288 | 340,000 tested, under 10 active | Potency, µM (top dose mostly 38.3 µM), inactives show at the highest dose reporter change, positive = more light; active = well fitted rising curve with a large enough effect; inconclusive = small, poorly fitted or top-dose-only effect; inactive = no such curve, though single readings can be large or run the other way;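 further: % of control where 0% means no effect; miR-21 action dims this reporter so a rising signal means less miR-21 action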
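Luminescence from a firefly luciferase reporter carrying a miR-21 binding site downstream, stably expressed under a CMV promoter in HeLa cells that make miR-21 endogenously, reports miRNA modulation after 48 h compound exposure up to approximately 40uM final.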
An asterisk follows results filed as active; ? = inconclusive. An excerpt (hit frequency here may not be typical).

Start of the data: the first 3 records as a preview:
SMILES | miR-21 FLuc
Cc1ccc(C)c(Cn2c3ccccc3c3cnn(CC(=O)NCCC4=CCCCC4)c(=O)c32)c1 | 0.3%
Cc1ccc2scc(N3CCCCC3C)c(=O)c2c1 (stereo not drawn) | -62.6%
O=C(Nc1c2c(nn1-c1ccc(Cl)cc1)CS(=O)(=O)C2)c1ccc(Br)cc1 | 29.4%

This part in full, previewed entries included:
SMILES | miR-21 FLuc
Cc1ccc(C)c(Cn2c3ccccc3c3cnn(CC(=O)NCCC4=CCCCC4)c(=O)c32)c1 | 0.3%
Cc1ccc2scc(N3CCCCC3C)c(=O)c2c1 (stereo not drawn) | -62.6%
O=C(Nc1c2c(nn1-c1ccc(Cl)cc1)CS(=O)(=O)C2)c1ccc(Br)cc1 | 29.4%
COc1ccc(CCNC(=O)CCn2c(=O)c3ccccc3n(Cc3ccccc3C)c2=O)cc1OC | -13.7%
Cc1ccc(-n2c(=O)c3cccnc3n2CC(=O)Nc2cc(Cl)ccc2C)cc1 | 4.2%
COc1cc(OC)c(NC(=O)CCS(=O)(=O)c2ccc3c(c2)oc(=O)n3C)cc1Cl | 7.7%
CCN(CC)S(=O)(=O)c1ccc2c(c1)c(=O)c(C(=O)N1CCN(c3ccc(OC)cc3)CC1)cn2C | 3.6%
CC(=O)c1ccc(NC(=O)/C=C/c2ccc(C)o2)cc1 | -34.1%
CCOc1cc(-c2ccc(OC(=O)c3ccc(OC)cc3)c(OC)c2)cc(=O)c2c(C)oc(C)c12 | -8.0%
COc1ccc(-c2oc3ncn4nc(COc5ccc(C)cc5)nc4c3c2-c2ccc(OC)cc2)cc1 | -1.9%
Cn1c(=O)oc2cc(S(=O)(=O)N3CCCC(C(=O)N4CCN(c5cccc(Cl)c5)CC4)C3)ccc21 (stereo not drawn) | 16.5%
CCCNC(=O)C1CCC(Cn2c(=O)c3sccc3n(Cc3ccccc3C)c2=O)CC1 (stereo not drawn) | -0.5%
CCCN1C(=O)C(O)(CC(=O)c2ccc(CC)cc2)c2cc(Br)ccc21 (stereo not drawn) | 22.5%
CCc1cccc(NC(=O)Cn2c(-c3ccc(F)cc3)cc(C(C)=O)c2C)c1 | 6.1%
O=C(NCc1cccs1)c1ccc(CSc2nc3ccncc3n2Cc2ccccc2)cc1 | -10.8%
CC(=O)Nc1ccc(S(=O)(=O)N2CCC(c3ccncc3)CC2)cc1 | 15.1%
COc1cc2c(cc1OC)C(COc1ccc3c(C)cc(=O)oc3c1)N(C(=O)c1ccccc1C)CC2 (stereo not drawn) | -1.6%
CCOC(=O)N1CCC(NC(=O)c2ccc3c(c2)N(Cc2ccccc2)C(=O)c2ccccc2S3(=O)=O)CC1 | -2.6%
CCC(C)NC(=O)c1cn(CC)c2ccc(S(=O)(=O)N3CCc4ccccc4C3)cc2c1=O (stereo not drawn) | 14.2%
Cc1ccc(-c2noc(CNC(=O)c3ccccc3)n2)cc1 | -6.7%
CCOc1ccccc1NC(=O)CSc1nc2c([nH]c3ccccc32)c(=O)n1-c1ccccc1 | 2.5%
CC1=C(C(=O)OC2CCCCCC2)C(c2cccc(F)c2F)CC(=O)N1 (stereo not drawn) | 1.8%
COc1ccc(NC(=O)CSc2nc(-c3ccc(F)cc3)[nH]c2-c2ccc(C)cc2)cc1OC | ?
O=C(Nc1ccc2nc(SCC(=O)N3CCOCC3)sc2c1)c1ccc(F)cc1 | 23.5%
CCC(O)c1nc2ccccc2n1Cc1cccc(Cl)c1 (stereo not drawn) | 10.8%

Taken from above:
`CCCNC(=O)C1CCC(Cn2c(=O)c3sccc3n(Cc3ccccc3C)c2=O)CC1` (stereo not drawn) | miR-21 FLuc = -0.5%
`Cc1ccc(-n2c(=O)c3cccnc3n2CC(=O)Nc2cc(Cl)ccc2C)cc1` | miR-21 FLuc = 4.2%
`CCOc1ccccc1NC(=O)CSc1nc2c([nH]c3ccccc32)c(=O)n1-c1ccccc1` | miR-21 FLuc = 2.5%

Back to the main list; the 5 compounds before the break are reprinted first.
SMILES | miR-21 FLuc
CCOc1ccccc1NC(=O)CSc1nc2c([nH]c3ccccc32)c(=O)n1-c1ccccc1 | 2.5%
CC1=C(C(=O)OC2CCCCCC2)C(c2cccc(F)c2F)CC(=O)N1 (stereo not drawn) | 1.8%
COc1ccc(NC(=O)CSc2nc(-c3ccc(F)cc3)[nH]c2-c2ccc(C)cc2)cc1OC | ?
O=C(Nc1ccc2nc(SCC(=O)N3CCOCC3)sc2c1)c1ccc(F)cc1 | 23.5%
CCC(O)c1nc2ccccc2n1Cc1cccc(Cl)c1 (stereo not drawn) | 10.8%
O=C(c1ccc2c(c1)N(Cc1ccc(F)cc1)C(=O)c1ccccc1S2(=O)=O)N1CCC(Cc2ccccc2)CC1 | 20.0%
CCOC(=O)C1CCN(C(=O)c2cc3sc(C)cc3n2C)CC1 | -39.8%
O=S(=O)(Nc1ccc2nc(-c3cccc(Cl)c3)oc2c1)c1ccccc1 | -20.5%
CCOc1ccccc1N1CC(c2nc3ccccc3n2Cc2c(C)cc(C)cc2C)CC1=O (stereo not drawn) | 26.2%
Clc1ccc2nc(-c3ccc(Br)o3)c(Nc3ccc4c(c3)OCCO4)n2c1 | -7.6%
CCN(c1ncnc2c1cnn2-c1cc(Cl)ccc1C)C1CCCCC1 | -10.4%
CCOC(=O)COc1ccc(C)cc1C(=O)c1ccn2nc(-c3ccc(C)cc3)cc2n1 | 4.1%
CCOc1ccc(C(=O)CSc2nnc3cc(C)c4ccccc4n23)cc1 | -7.6%
COc1cc(N2C(=O)CSC23C(=O)N(C)c2ccccc23)cc(OC)c1OC (stereo not drawn) | -0.3%
COc1cccc(NC(=O)Cc2csc(COc3cccc(C)c3)n2)c1 | -7.0%
O=C(COc1ccccc1F)OCc1cc(=O)n2nc(-c3cccs3)sc2n1 | -16.7%
Cc1ccc(-c2cc(C(=O)Oc3ccc(C#N)cc3)no2)cc1C | -11.1%
Cc1oc(-c2ccc(C(=O)NCCN(C)C)cc2)nc1CS(=O)(=O)c1ccccc1 | -1.5%
O=c1c2oc3ccccc3c2ncn1Cc1ccc(Br)cc1 | 3.0%
CCN1C(C(=O)c2ccccc2)=C(OC(=O)COc2ccc(C)cc2)c2ccccc2S1(=O)=O | ?
Cc1cccc(NC(=O)Cn2c(=O)nc(-c3ccccc3)c3ccccc32)c1C | -2.1%
CC(=O)N1CCc2c(sc3nc(SCC(C)C)n(-c4ccc(C)c(Cl)c4)c(=O)c23)C1 | 26.5%
COc1ccc(CCNC(=O)CN(c2ccc(C)cc2)S(=O)(=O)c2ccc(OC)cc2)cc1 | -0.4%
O=C(O)CC(NS(=O)(=O)c1ccc(Cl)s1)c1ccccc1 (stereo not drawn) | -2.1%
COC(=O)c1c(NC(=O)COc2ccc(Cl)cc2)sc(C)c1C | -2.2%
COc1ccc(C(=O)Nc2cc(C(C)C)c(O)c(S(=O)(=O)c3ccc(OC)cc3)c2C)cc1 | -45.8%
Cc1c(Cl)cccc1NC(=O)c1cc2sccc2n1Cc1ccc(F)cc1 | -24.8%
Cc1nn(CC(=O)N2CCN(c3cccc(C(F)(F)F)c3)CC2)c(=O)c2cc3sccc3n12 | 0.2%
CCc1cc2c(cc3c(=O)n(CCCC(=O)NCc4ccccc4Cl)nc(CC)n32)s1 | -12.6%
CCOC(=O)c1cc(-c2ccccc2)n(CCCC(=O)Nc2ccccc2C)c1C | 12.3%

Given in CSV form: part of the list above
SMILES,miR-21 FLuc
Cc1cccc(NC(=O)Cn2c(=O)nc(-c3ccccc3)c3ccccc32)c1C,-2.1%
CC(=O)N1CCc2c(sc3nc(SCC(C)C)n(-c4ccc(C)c(Cl)c4)c(=O)c23)C1,26.5%
COc1ccc(CCNC(=O)CN(c2ccc(C)cc2)S(=O)(=O)c2ccc(OC)cc2)cc1,-0.4%

(more compounds)
SMILES | miR-21 FLuc
CCCc1ccc(OC(=O)c2sc3ncn(Cc4cccc(F)c4)c(=O)c3c2C)cc1 | 0.3%
COc1cccc(CN2CCCN(Cc3ccc(F)cc3)S2(=O)=O)c1 | -4.1%
CCCc1cc(=O)oc2cc(C)c3c(C(C)(C)C)coc3c12 | -0.3%
Cc1cccc(-c2nc3cc(NC(=O)COc4ccccc4F)ccc3o2)c1 | -26.9%
COc1ccccc1C(=O)OCc1cc(=O)n2nc(C3CCCCC3)sc2n1 | -1.9%
COc1ccc(NC(=O)CSc2ccc3nc(-c4ccccc4)cn3n2)c(OC)c1 | 13.5%
CC(C)Oc1ccc(CNC(=O)c2cc3cccc4c3n2CC(C)S4)cc1 (stereo not drawn) | 10.6%
CCOC(=O)Cc1ccc(NC(=O)NC(C)c2c(-n3cccc3)sc(C)c2C)cc1 (stereo not drawn) | 11.8%
CCn1c(SCc2ccc(F)cc2Cl)nnc1-c1nonc1NC(C)=O | 9.0%
Cc1ccc(CCNC(=O)CN2C(=O)COc3ccc(S(=O)(=O)N4CCCCCC4)cc32)cc1 | -1.6%
O=C(Cn1c(=O)n(-c2ccc(Cl)cc2)c(=O)c2sc3ccccc3c21)NC1CCCCC1 | -0.9%
CCOc1ccc(NC(=O)c2ccc3[nH]c(C)c(C)c3c2)cc1 | -11.9%
Cc1cc(C)cc(OCCSc2nc(-c3cccs3)nc3cc(=O)[nH]n23)c1 | -28.0%
COC(=O)c1c(-c2ccc(Cl)cc2)noc1N1CCN(c2cccc(C)c2C)CC1 | -0.6%
COc1ccc(Cn2nnc3c(=O)[nH]c(C4CCCN(C(=O)c5ccccc5Cl)C4)nc32)cc1OC (stereo not drawn) | -31.2%
CCc1nn2c(=O)cc(COc3ccc(/C=C(\C#N)C(=O)Nc4ccc(C)cc4)cc3)nc2s1 | -13.4%
Cc1ccc(-n2ncc3c(N4CCC(Cc5ccccc5)CC4)ncnc32)cc1 | -5.6%
O=S(=O)(Nc1ccc(F)cc1F)c1ccc(Br)s1 | 1.8%
Cc1ccc(C(=O)N(Cc2ccco2)c2ccccn2)cc1 | -38.6%
COc1ccc(NC(=O)CSC2=Nc3ccccc3N=C(c3ccc(F)cc3)C2)cc1OC | -15.4%
COc1ccc(NC(=O)c2cccc(N3CCCS3(=O)=O)c2)c(OC)c1 | -13.5%
Cc1ccc(NC(=O)CN(C)S(=O)(=O)c2cccc3nsnc23)c(C)c1 | -1.0%
COC(=O)c1sccc1S(=O)(=O)N(CC(=O)NCc1ccc(C)cc1)c1ccc(C)cc1 | 0.2%
COc1ccc(OCC(=O)Nc2ccc(Cl)c(-c3nc4ncccc4o3)c2)cc1 | -11.0%
COc1ccc(OC)c(NC(=O)Cn2c(=O)cc(-c3ccccc3)c3c(C)nn(C)c32)c1 | -14.7%
SMILES | miR-21 FLuc
Cc1ccccc1CNC(=O)CCCn1c(=O)c2cccn2c2cccnc21 | -15.1%
CCOc1ccc(CCNC(=O)c2cnc3sc(N4CCC(C)CC4)nn3c2=O)cc1 | 0.0%
Cc1cc(N2CCN(c3cccc(C)c3C)CC2)n2nc(C)c(-c3ccc(Cl)cc3)c2n1 | 1.0%
CCOC(=O)c1c(C)c(-c2ccccc2)n(CC(=O)NCc2ccccc2)c1C | 2.1%
COc1ccc(NC(=O)C(C)n2nc(-c3cc(C)ccc3C)c3c(c2=O)CCCC3)cc1 (stereo not drawn) | 5.7%
CCOC(=O)Cn1c(=O)n(C2CCCCC2)c2nc(-c3ccc(OC)cc3)nc(C(N)=O)c21 | 3.3%
CCOc1ccccc1NS(=O)(=O)c1cc2[nH]c(=O)c(=O)[nH]c2cc1C | -1.1%
Cc1ccccc1OCC(=O)Nc1ccc(C(=O)OCc2cc(=O)n3c(C)csc3n2)cc1 | -0.5%
CCN(CC)CCCNC(=O)c1cnc(SC)nc1-c1ccccc1 | -5.4%
CCOCCCn1c(SCC(=O)Nc2ccc(C)cc2)nc2ccccc2c1=O | 20.3%
CCC(C(=O)Nc1ccccc1)n1nc(-c2cc(C)ccc2C)ccc1=O (stereo not drawn) | -0.7%
CCN1C(=O)c2ccccc2S(=O)c2ccc(C(=O)N3CCN(c4cccc(Cl)c4)CC3)cc21 (stereo not drawn) | 16.0%
O=S(=O)(c1ccccc1)c1nc(-c2ccco2)oc1SCc1ccc(F)cc1 | 7.0%
CCN(CCCNC(=O)c1c(C)oc2ncn(CC(C)C)c(=O)c12)Cc1ccccc1 | -0.4%
COc1ccc(CCN2CCC(CNC(=O)c3cnn(-c4cccc(Cl)c4)c3C3CCN(C(=O)OC(C)(C)C)CC3)CC2)cc1 | 26.6%
Cc1ccc(-c2nn(-c3ccccc3)c3c2cnc2ccccc23)cc1C | -3.6%
COc1ccccc1C(=O)Nc1nc(-c2ccccc2)ns1 | -52.9%
CCc1ccccc1NC(=O)C1CCCN(c2nnc(-n3c(C)ccc3C)s2)C1 (stereo not drawn) | 3.5%
O=C(NCc1ccccc1Cl)c1ccc(CSCc2ccccc2Cl)o1 | -1.8%
O=c1[nH]c(SCc2ccc(Br)cc2)nc2c1CCCC2 | -5.3%
CCOC(=O)c1cc(-c2ccccc2)n(CCC(=O)NCCc2cccc(C)c2)c1C | 8.8%
COc1ccc(CNC(=O)c2ccc3c(c2)N(Cc2cc(C)ccc2C)C(=O)CS3)cc1 | -1.7%
Cc1ccccc1Nc1c(-c2ccccc2O)nc2sccn12 | 22.3%
Cc1ccc(NC(=O)Cn2cnc3sc(C(=O)O)c(C)c3c2=O)cc1Cl | -27.8%
CCN(c1ccccc1)S(=O)(=O)c1nnc(NC(=O)C(C)Oc2ccccc2)s1 (stereo not drawn) | -50.8%
SMILES | miR-21 FLuc
CCOc1ccc(-c2cc3c(=O)n(CC(=O)Nc4cc(F)ccc4C)ccn3n2)cc1 | -53.0%
COC(=O)c1c(Oc2ccc(Br)cc2)nnc(-c2ccccc2)c1-c1ccccc1 | ?
Cc1nc2cc(-c3cccc(F)c3)nn2c(C)c1CCC(=O)N1CCN(c2ccc(F)cc2)CC1 | 19.1%
CCOCCCn1c(SCC(=O)Nc2ccccc2Cl)nc2c(oc3ccccc32)c1=O | 4.3%
Clc1ccc(-c2cc3ncc4c(n3n2)-c2ccccc2OC4)cc1 | -3.2%
CCOc1ccccc1NC(=O)Cn1c(=O)n(C(C)C)c(=O)c2oc3ccccc3c21 | -4.3%
COc1ccc(CNC(=O)Cc2coc3ccc(C)cc23)cc1 | -10.6%
Cc1cc(C)c2c(n1)nn1c(C)c(CCC(=O)NCc3ccc(Cl)cc3)c(C)nc21 | 2.2%
